# PrP UTR inh – suppresses PrP 5' UTR mRNA reporter expression; inhibition, % (concentration not given with the values); 340,000 compounds, 0.35% hits; AID 488862; cell-based PrP 5' UTR mRNA reporter, plate reader;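 active means every replicate at 50% or more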;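 further: 0 = median of the neutral control wells; tested in H4 reporter cells; numbers are from one replicate; inactives centre near -14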
# Sa RN4220 lethal – kills Staphylococcus aureus RN4220; S. aureus RN4220 growth, OD600, 16 h; inhibition, % (concentration not given with the values); 330,000 compounds, 0.33% hits;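 active means z-score of -3 or lower and OD600 up to 0.18 on both plates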;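 further: plate controls were untreated cells for no effect and reference antibiotic for full effect; stock transfer was 100 nL into about 80 µL; one replicate is shown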
# BJeLR viability – kills HRASV12-expressing BJeLR cells; BJeLR (HRASV12) viability, CellTiter-Glo ATP luminescence, 48 h; reference of the scale not given here; inhibition, % (no concentration beside the values); 300,000 compounds, 0.17% hits;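 active means replicate mean above 50%; inconclusive means above 50% but judged a plate artefact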;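 further: 50 nL library stock added to about 25 µL; numbers are from one replicate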
# Autofluor counter – flagged as autofluorescent in microsphere protease counterscreen; compound autofluorescence counterscreen, microsphere flow cytometry; stronger effect = higher value; fluorescence intensity (test concentration not listed); 360,000 compounds, 3.1% hits; AID 624483;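 active means at least 3 SD above the mean of all compounds, about 16000 in these data; inconclusive means too few beads counted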;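 further: 100 nL of 1 mM stock went into each well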
# Sa ugtP lethal – compounds lethal to S. aureus RN4220 ugtP deletion mutant | AID 1259309 | 330,000 compounds, 0.54% hits | OD600 growth, 16 h; some inactives read as strong as hits | growth inhibition, % (no concentration beside the values);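 active means z-score under -3 and OD600 up to 0.15 on both plates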;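 further: plate controls were untreated wells for no effect and antibiotic for full effect; wells of about 80 µL received 100 nL stock; the first replicate is given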
# Mtb hypoxia inh – reduces hypoxia-regulated biosensor signal in M. tuberculosis. M. tuberculosis hypoxia-regulated fluorescent reporter, fluorescence. fluorescence inhibition, % (concentration not given with the values). 300,000 compounds, 0.1% hits. AID 1159583;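 active means 35 to 45% if threefold the growth effect, above 45% if 1.5-fold the growth effect; inactive means the rest, general growth blockers included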;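 further: wells of about 50 µL received 100 nL stock; 0% = vehicle wells and 100% = reference inhibitor wells; whole bacteria with a GFP reporter of the hypoxia response; strong numbers were not always called active; many hits fall short of the cut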
# Mtb hypoxia inh growth – further read-out of Mtb hypoxia inh, marked with its call; growth inhibition, %; measured here: M. tuberculosis growth (absorbance);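 0% = vehicle and 100% = reference antibiotic; read after six days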
# The depositor's hits bear a star; ? = inconclusive; / = no result given.
SMILES,PrP UTR inh,Sa RN4220 lethal,BJeLR viability,Autofluor counter,Sa ugtP lethal,Mtb hypoxia inh,Mtb hypoxia inh growth
O=C(CN1C(=O)NC2(CCCC2)C1=O)Oc1ccc2ccc(=O)oc2c1,-13,0.2,/,3604,-2,2,5
CN(C)c1ccc(NC(=O)Nc2cccc(Cl)c2)cc1,-68,-2.8,-1,19659*,-12,10,11
CCC1CCCCN1C(=O)CSc1nnc(-c2ccco2)o1 (stereo not given),-87,-2.2,/,5206,2,/,/
CCc1ccccc1NC(=S)NCC1CCN(c2ccc(OC)cc2)C1 (stereo not given),-16,-2.0,3,6184,8,-14,2
COc1ccc(C(=O)N[C@H](C(=O)NCC2CCCCC2)C(C)C)cc1,-15,-1.6,-13,2692,5,/,/
COc1ccccc1C(=O)Oc1ccc2ccc(=O)oc2c1,-1,0.9,3,3039,8,2,-2
CCc1ccc(NC(=S)Nc2ccc3[nH]c(=O)[nH]c3c2)cc1,/,2.5,4,3643,7,/,/
O=C(Cc1coc2cc3c(cc12)CCC3)NCC1(N2CCCCC2)CCCCC1,-8,-1.1,4,5214,18,8,-3
Clc1ccc(C=NN2CCCCCC2)cc1,-80,17,/,3326,14,4,12
CCc1nnc(NC(=O)c2ccc(S(=O)(=O)N3CCOCC3)cc2)s1,-1,-4.8,0,5870,-2,4,14
Cc1ccccc1NC(=O)c1ccccc1NC(=O)c1cccs1,-11,24,0,3602,-5,1,3
COc1ccccc1C(=O)Nc1nc(-c2ccc3c(c2)OCCO3)cs1,-2,2.7,7,5614,-7,5,2
CCCNC(=O)NS(=O)(=O)c1cnccc1Sc1ccc(Cl)c(Cl)c1,-9,0.5,-3,4917,4,/,/
COc1ccc(C(=O)O)nc1C,-6,2.2,10,4281,1,13,16
O=C(/C=C/c1ccco1)N1CCN(S(=O)(=O)/C=C/c2ccccc2)CC1,-12,9.2,-10,4238,5,-5,2
Cc1cc(=O)[nH]c(N=NC(=NNc2ccccc2C)c2ccccc2)n1,/,-0.3,/,/,-23,6,9
O=C(Nc1ccc(Cl)c(C(F)(F)F)c1)C1CC=CC2CCN(C3CCCCC3)C(=O)C21 (stereo not given),/,-2.4,/,/,0,6,13
Oc1[nH]c2ccccc2c1N=Nc1ccc(F)cc1,-76,0.3,-9,2265,-26,9,0
COc1nccnc1NS(=O)(=O)c1ccc(N=Cc2c(C)[nH]n(-c3ccccc3)c2=O)cc1,-17,5.7,17,9842,6,17,18
NC(=O)CC(c1ccccc1)c1ccc2c(c1)OCO2 (stereo not given),-21,4.2,-1,?,4,15,6
CC(C)(C)NC(=O)c1ccc2c(c1)C(=O)N(C1CCCCC1)C2=O,-18,2.8,0,16466*,4,7,7
O=C1CS/C(=C/C(=O)c2ccccc2)N1,-30,3.5,20,8065,3,-2,-1
Cc1cc(NC(=O)CSc2nc(-c3ccccc3)c(C#N)c(=O)[nH]2)no1,-4,1.3,5,11354,1,5,3
C=CCOC(=O)C1=C(C)Nc2[nH]c(=O)[nH]c(=O)c2C1c1ccccc1 (stereo not given),-19,5.7,/,2640,6,9,-2
Cc1[nH]c(C)c2c(=O)n(-c3ccccc3)ncc12,-4,6.9,3,4497,3,3,2
C=CCN(CC=C)CCOc1ccc2ccccc2c1,-14,3.8,9,2014,21,13,6
Cc1ccc2nc3c(cc2c1)c(NS(=O)(=O)c1ccccc1)nn3CC(C)C,4,5.3,-3,3345,-17,4,4
Cc1nccn1CCC(=O)O,-16,2.6,6,2790,0,/,/
O=[N+]([O-])/C(C(Cl)=C(Cl)Cl)=C(/Sc1ccccc1)N1CCCCC1,-7,4.9,-2,4444,3,1,-3
Cc1cc(C)nc(N/N=C/c2ccccc2OCc2ccc(Br)cc2)n1,-11,/,-13,10698,/,/,/

# Ordered by molecular weight (lowest first): part of the list above.
SMILES,PrP UTR inh,Sa RN4220 lethal,BJeLR viability,Autofluor counter,Sa ugtP lethal,Mtb hypoxia inh,Mtb hypoxia inh growth
Cc1nccn1CCC(=O)O,-16,2.6,6,2790,0,/,/
O=C1CS/C(=C/C(=O)c2ccccc2)N1,-30,3.5,20,8065,3,-2,-1
CC(C)(C)NC(=O)c1ccc2c(c1)C(=O)N(C1CCCCC1)C2=O,-18,2.8,0,16466*,4,7,7
C=CCOC(=O)C1=C(C)Nc2[nH]c(=O)[nH]c(=O)c2C1c1ccccc1 (stereo not given),-19,5.7,/,2640,6,9,-2
Cc1cc(NC(=O)CSc2nc(-c3ccccc3)c(C#N)c(=O)[nH]2)no1,-4,1.3,5,11354,1,5,3
Cc1ccc2nc3c(cc2c1)c(NS(=O)(=O)c1ccccc1)nn3CC(C)C,4,5.3,-3,3345,-17,4,4

# The results go on.
SMILES,PrP UTR inh,Sa RN4220 lethal,BJeLR viability,Autofluor counter,Sa ugtP lethal,Mtb hypoxia inh,Mtb hypoxia inh growth
COc1cc(C(=O)NC2CCCc3ccccc32)cc(OC)c1C (stereo not given),-17,3.4,3,4155,-9,0,2
Cc1ccc(/C=N/N2CCN(C3c4ccccc4-c4ccccc43)CC2)o1,-7,/,-3,5454,/,/,/
CCOC(=O)c1c(N)n[nH]c1-c1ccccc1,-19,8.4,3,7261,12,-8,3
COc1cc(C(=S)N2CCCC2)ccc1OCc1ccccc1,-22,5.9,-5,3282,9,13,10
COc1cc2c(cc1OC)C(C)N(C(=O)c1cc(Cl)nc(Cl)c1)CC2 (stereo not given),-8,-0.7,5,2867,-6,-6,-1
CC(=O)N1c2ccc(S(=O)(=O)NCc3ccccc3Cl)cc2CC1C (stereo not given),-19,9.9,2,5187,-3,5,11
CCOC(=O)C(C)(C)Sc1nc2c(cnn2-c2ccc(C)cc2)c(=O)[nH]1,-20,13,-1,4734,5,/,/
S=C(NCCN(C1CCCCC1)C1CCCC1)Nc1cccc(Cl)c1,-12,-1.8,-4,4887,22,5,0
O=C(COC(=O)c1ccc(Cl)cc1[N+](=O)[O-])NCc1ccco1,-19,10,/,3058,9,4,3
Cn1c(-c2ccc(Cl)cc2)cnc1NCc1cc2c(cc1[N+](=O)[O-])OCO2,-21,/,1,9163,/,/,/
Cc1ccccc1OCC(=O)Nc1ccc(N2CCOCC2)cc1N1CCOCC1,-13,9.4,/,3377,5,3,10
COc1ccc(CC(=O)OCC(=O)Nc2ccc3c(c2)OCCO3)cc1OC,-11,1.5,-14,3946,0,4,6
O=C(O)c1ccc(N2C(=O)CC(N3CCN(c4cccc(C(F)(F)F)c4)CC3)C2=O)cc1 (stereo not given),-8,0.0,-12,4239,4,-12,-6
O=C(OCc1nc2ccsc2c(=O)[nH]1)c1ccco1,-11,-3.3,-2,4400,-4,-5,-4
CCN(CC)C(=O)CSc1nc2ccccc2c(=O)n1-c1cccc(OC)c1,-14,5.6,-26,3723,3,0,-1
O=C(NCc1ccco1)c1cc2n(n1)C(C(F)(F)F)CC(c1ccc(Cl)c(Cl)c1)N2 (stereo not given),2,3.1,2,17695*,1,6,13
CCOC(=O)Cc1nnc(Nc2ccc(C(=O)NC)cc2)c2ccccc12,-9,/,-9,6047,/,/,/
C/C(CC(=O)Nc1ccccn1)=N\NC(=O)c1cnccn1,-10,/,1,6112,/,/,/
Cc1nc(C(=O)Nc2ccccc2Cl)cc2c1[nH]c1ccccc12,-7,-16,7,4208,-4,1,-6
CCS(=O)(=O)Nc1ccc(NC(C)=O)cc1,-13,2.1,-11,4116,-1,/,/
O=[N+]([O-])c1ccccc1CNCCCCCO,-15,4.8,/,3561,-1,11,2
CCN(CC)S(=O)(=O)c1c(Br)cc(C)cc1Br,/,7.8,-1,10451,-4,15,13
Cc1cc(=O)oc2c3c(cc(OCC(=O)NCc4ccco4)c12)OC(C)(C)CC3,-17,5.1,-2,5068,2,/,/
COc1ccc(C(=O)NC(=S)Nc2ccc(Cl)cn2)cc1OC,-13,8.1,14,2188,0,1,2
CCCCOC(=O)c1ccc(Nc2ccc([N+](=O)[O-])cn2)cc1,-18,2.7,10,9393,4,4,7
CCCc1cc(=O)[nH]c(SCC(=O)Nc2ccc(C(=O)Nc3ccccc3OC)cc2)n1,-5,-1.6,/,3562,-4,3,14
CC(C)(C)C1CCC(C(=O)Nc2cccnc2)CC1 (stereo not given),-8,8.3,-13,4012,4,3,7
CCOC(=O)N1CCC(NC(=O)C2CCN(c3ccc(N4CCOCC4)nn3)CC2)CC1,-28,4.6,14,23805*,12,1,9
Cc1nc2ccccc2c(=O)n1N=Cc1ccncc1,/,4.5,/,/,14,10,3
COc1ccc(NC(=O)c2ccc(CN3CCc4ccccc4C3)cc2)c(OC)c1,-1,-0.5,-4,/,6,-1,17
CC1=C(C(=O)OC2CCCC2)C(c2coc3ccc(C)cc3c2=O)C2=C(CCCC2=O)N1 (stereo not given),-8,2.5,3,4526,0,-1,5
O=C(O)CCc1ccc(-c2ccc(F)cc2)n1Cc1ccco1,-35,-0.2,-11,12957,6,9,5
CC1(C)CC(=O)C=C(NCc2cccs2)C1,-28,0.4,-7,6349,-3,-4,-9
CCCOC(=O)c1ccc(-n2nnnc2SCC(=O)N2CCCCC2)cc1,-12,7.6,-1,10130,1,10,8
CCCS(=O)(=O)N1CCCC(C(=O)NCCc2ccccc2)C1 (stereo not given),-20,5.3,-4,3844,7,1,-2
Cc1sc2nc(C)n(N=CN(C)C)c(=O)c2c1C,/,1.4,/,/,-6,-14,-12
COc1ccc(OCC(=O)Nc2ccccc2OC(F)F)cc1,-30,2.7,-4,2119,2,/,/
Cc1ccc(CNS(=O)(=O)c2c(C(=O)N3CCCCC3)c(C)n(C)c2C)cc1,-4,1.0,10,4298,2,12,-3
CC(C)CCn1c(N2CCC(C(N)=O)CC2)nc2c1c(=O)[nH]c(=O)n2C,-29,-2.2,1,3778,4,8,5
CCNCCNC(=O)c1c(O)c2cccc3c2n(c1=O)CCC3,-2,1.4,-9,/,3,9,8
Cc1cccc2nc(CSC(=N)N)c(Br)n12,-25,9.7,-2,2218,5,-2,2
Cc1cc(C(=O)OCC(=O)N2CCN(C(=O)c3ccco3)CC2)c(C)n1-c1ccc(F)cc1,-4,-1.8,1,4580,-1,-10,5
O=C(Cn1nc(-c2ccccc2)c2ccccc2c1=O)Nc1ccccn1,-14,6.1,0,2991,-18,/,/
Cc1cc(C)nc(N2CCCC(C(=O)Nc3ccc4c(c3)OCO4)C2)n1 (stereo not given),-16,0.0,-5,20510*,1,2,-4
COCCNC(=O)c1onc(CSc2cccc(OC)c2)c1C(=O)NCCOC,-17,2.6,-8,3972,9,1,2
Cn1c(-c2ccc(Cl)nc2)nc2ccccc21,-6,5.5,-1,4298,-2,6,8
COCCn1c(SCC(=O)c2[nH]c(C)c(C(C)=O)c2C)nc2ccccc21,-11,3.5,7,8164,-2,17,6
COc1ccc(CN(C)C(=O)Cn2cnc3c(SC)nc(N)nc32)cc1OC,-10,2.0,/,4340,0,-3,-7
Cc1ccc(N=C(c2cccs2)N2CCOCC2)cc1,-14,1.0,-1,4100,4,0,6
CC1=NN(c2ccccc2)C(=O)/C1=C/c1c(O)[nH]c(=O)[nH]c1=O,-24,/,0,4066,/,/,/

# Later entries:
SMILES,PrP UTR inh,Sa RN4220 lethal,BJeLR viability,Autofluor counter,Sa ugtP lethal,Mtb hypoxia inh,Mtb hypoxia inh growth
O=C(NNC(=O)c1ccc(Cl)cc1Cl)c1csc(-c2cccnc2)n1,-9,4.2,5,6997,19,-8,-11
N=C1/C(=C/c2cccn2-c2cccc([N+](=O)[O-])c2)C(=O)N=C2SC=CN12,/,11,1,/,0,3,2
Cc1ccc(C(C)(C)C)cc1S(=O)(=O)Nc1cccc(C(=O)N2CCN(c3ccccn3)CC2)c1,-22,5.6,/,5490,-22,0,3
CCc1ccc(Nc2nc(C)cc(C)n2)cc1,-48,4.7,7,4099,3,7,10
CC1CCCCC12NC(=O)N(CC(=O)NNC(=O)c1ccc(Br)cc1)C2=O (stereo not given),-10,2.7,/,4201,6,9,-14
COc1cc(-c2nc3cccc(C)n3c2NCC2CCCO2)ccc1O (stereo not given),-7,6.8,-13,4460,4,-4,1
O=Cc1ccc2ccc3cccnc3c2n1,-9,5.3,1,3565,1,-1,-1
Cc1ccc(-c2nc3sc4c(c3c(=O)n2N)CC(C)(C)OC4)cc1,-36,2.2,-4,11003,-4,1,10
CCc1ccc(Nc2n[n+](-c3ccccc3)c(-c3cccc(Cl)c3Cl)s2)cc1,-13,-4.8,/,4299,-13,12,4
CCOc1ccc(C2NC(=O)CCC2[N+](=O)[O-])cc1 (stereo not given),-9,0.1,-4,3472,6,5,7
CCOC(=O)c1sc(=S)n2c1[nH]c(=O)c1ccc(C(=O)OC)cc12,5,15,0,?,21,3,-2
